TRPML1 ag: human mucolipin-1 channel agonism; actives 0.12% (n = 410,000); activation, % (concentration not given with the values); TRPML1-expressing cells, Ca2+ dye fluorescence, FDSS; host cell line not named in the record; reference of the full effect not given here; Q9GZU1; AID 624414; in the data active = activation above about 50%; inconclusive = about 30% to 50%; inactive = below about 30%; note: 0% is about no effect; the text of the record puts the active cut at 80%
Target sequence (Q9GZU1 whole entry, looked up): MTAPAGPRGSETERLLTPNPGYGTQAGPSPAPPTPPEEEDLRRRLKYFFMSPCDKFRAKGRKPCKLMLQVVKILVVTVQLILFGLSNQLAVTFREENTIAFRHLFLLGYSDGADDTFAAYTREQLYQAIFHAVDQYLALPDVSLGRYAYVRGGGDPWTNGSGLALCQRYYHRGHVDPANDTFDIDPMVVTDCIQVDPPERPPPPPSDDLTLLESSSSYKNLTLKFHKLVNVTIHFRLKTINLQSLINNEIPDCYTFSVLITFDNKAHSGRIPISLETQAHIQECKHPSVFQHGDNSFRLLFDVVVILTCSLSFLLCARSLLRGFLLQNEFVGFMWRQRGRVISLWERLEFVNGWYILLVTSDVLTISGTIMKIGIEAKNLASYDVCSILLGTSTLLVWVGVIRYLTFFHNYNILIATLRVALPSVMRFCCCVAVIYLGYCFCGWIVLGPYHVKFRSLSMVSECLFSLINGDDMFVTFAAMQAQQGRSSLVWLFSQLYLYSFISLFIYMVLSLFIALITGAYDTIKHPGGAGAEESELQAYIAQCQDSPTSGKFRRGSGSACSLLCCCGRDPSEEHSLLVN
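Kinetic FDSS Ca2+ read in Tet-induced TRPML1-DL cells (ABD Ca8 dye plus quencher, 45-90 min RT loading): baseline, then compound, then 110 s agonist window; EC80 agonist 54-4 at 4uM final added afterwards for a 110 s antagonist window.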
Menin-MLL FL inh: inhibitors of human menin-MLL interaction, wild-type MLL peptide | Fluorescence polarization, fluorescein-MLL peptide displacement from menin | FP activity change, % at 61.4 µM | 290,000 tested, under 10 active | AID 1766; inconclusive = falling polarisation curve, or a change in total fluorescence; inactive = total fluorescence flat and polarisation flat or rising; no compound was filed as active; the % refers to the polarisation; negative = inhibition;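 note: % of control where 0% means no effect; inhibitors lower the polarisation; unlabelled MLL peptide was the positive control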
Sfp PPTase inh: inhibitors of Bacillus subtilis Sfp phosphopantetheinyl transferase | Q9F4F7 | Biochemical Sfp PPTase activity, qHTS | Potency, µM, inactives show max response, negative = inhibition, usual class: inhibitors | actives 3.5% (n = 310,000) | AID 1490; active = well fitted inhibition curve with a large enough effect; inconclusive = small, poorly fitted or top-dose-only effect, or another doubt; inactive = no such curve, though single readings can be large or run the other way;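 note: the enzyme is Sfp with the accession as filed and its product quenches rhodamine fluorescence; potency is the fitted concentration of half-maximal effect; 0% = enzyme reaction without inhibitor and -100% = no enzyme wells; top concentration of the series not given in the record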
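Sfp 15 nM + cpd, 15 min RT; start w/ rhodamine-CoA 5 uM, BHQ-2-YbbR 12.5 uM (final); 50 mM Hepes pH 7.6, 10 mM MgCl2, 0.01% NP-40, 0.01% BSA; read 525/598 nm at 0 and 30 min.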
TRPV1 PAM: human TRPV1 potentiation; Q8NER1; TRPV1-expressing cells, Fluo-8 calcium influx, capsaicin EC20 potentiation; host cell line not named in the record; control for the full effect not named in the record; potentiation, % at 8.33 µM; actives 0.02% (n = 320,000); AID 540277; active means potentiation above 80%; inconclusive means 30% to 80%; inactive means below 30%; note: 0% is about no effect
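TRPV1-expressing cells were cultured overnight at 35.5C and loaded with Fluo-8 calcium dye for 40 to 90 min at room temperature. After a 10 s baseline, compound was added and calcium influx was read kinetically for 3 min (ex 480/em 520 nm).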
PINK1 modulator: PINK1 expression modulation | PINK1 immunofluorescence, high-content cytometry, 24 h | Potency, µM (series often up to 76.6 µM), inactives show top-dose activation (PINK1 increase), hits mostly activators | actives 0.2% (n = 410,000) | AID 624263; active = well fitted activation curve with a large enough effect; inconclusive = small, poorly fitted or top-dose-only effect; inactive = flat fitted curve, though single readings scatter; cell line not stated here;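 note: potency is the fitted concentration of half-maximal effect; % of control where 0% means no effect; nearly all actives have a fitted effect of over 65% in size; a mitochondrial uncoupler was the plate control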
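Decision-based qHTS: stable cells, 24 h exposure to five compound concentrations, CCCP as control. Fixed cells stained for PINK1 plus nuclear, mitochondrial and cell markers, cytometer read.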
ClpP mod: qHTS Assay for Activators of ClpP. ATP-dependent Clp protease proteolytic subunit (Bacillus subtilis (strain 168)), P80244. purified B. subtilis ClpP, FRET peptide cleavage, 20 min. Potency, µM (top dose mostly 57.5 µM), for inactives: at the top dose activity change, negative = active. actives 1.9% (n = 340,000). AID 651965, 2013; active = well fitted falling curve with a large enough effect; inconclusive = small, poorly fitted or top-dose-only effect; inactive = no such curve, though single readings can be large or run the other way; note: potency is the fitted concentration of half-maximal effect; the source files actives as falling curves though it sought activators and does not explain the sign; nearly all actives have a fitted effect of over 65% in size; many hits overshoot -100%
Target sequence (P80244 whole entry, looked up): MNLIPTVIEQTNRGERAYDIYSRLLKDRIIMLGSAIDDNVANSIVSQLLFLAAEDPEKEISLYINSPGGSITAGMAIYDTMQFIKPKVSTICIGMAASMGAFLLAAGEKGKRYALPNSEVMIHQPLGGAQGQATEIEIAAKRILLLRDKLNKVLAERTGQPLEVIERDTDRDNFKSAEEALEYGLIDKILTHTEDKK
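FRET quenching reversal measured ClpP activation: 10 microg/mL B. subtilis ClpP at pH 8 with the FRET-FV decapeptide, read at 430 nm after 320 nm excitation. The 20-min minus 0-min signal was scaled between DMSO/no-enzyme wells and ADEP (5.8 microM final).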
TRPML1 inh: blocks the human TRPML1 channel; actives 0.02% (n = 390,000); activity change, negative = inhibition, % (test concentration not listed); AID 624415; TRPML1-inducible cells, Ca2+ dye fluorescence, FDSS; hits give low values; inhibition of EC80 agonist-evoked calcium signal; Q9GZU1; in the data active means activity change below about -50%; inconclusive means about -30% to -50%; inactive means above about -30%;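 note: stimulus is agonist 54-4 at its EC80 concentration; % is set by controls: 0 for no effect and ±100 for the full control effect; compound concentration not given in the record; the text of the record puts the active cut at -80%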
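Calcium fluorescence in TRPML1-DL cells induced overnight with Tet: a 110 s read after compound pin addition, then a 110 s antagonist read after challenge with 54-4 at 4 uM final (EC80).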
* = called active by the depositor; ? = inconclusive; . = not tested or not shown; [ ] = dose if it differs, or a comment.

SMILES	TRPML1 ag	Menin-MLL FL inh	Sfp PPTase inh	TRPV1 PAM	PINK1 modulator	ClpP mod	TRPML1 inh
COc1ccc(S(=O)(=O)N2CCc3ccccc32)cc1C(=O)OCc1c(C)noc1C	3.0	-4.0	-2%	?	-1.6%	5.8%	7
O=C(CSc1nc2ccccc2n1Cc1ccccc1Cl)NCc1ccccc1	0.3	.	.	.	10%	-0.4%	-21
COC(=O)c1ccc(COc2ccccc2/C=C(\C#N)C(=O)Nc2c(C)cccc2C)cc1	-0.3	1.5	5%	21	0.8%	?	23
C=CCn1c(SCc2nc3ccccc3c(=O)[nH]2)nc2ccccc2c1=O	-0.2	-1.6	50µM*	-13	3.9%	17%	5
Cc1ccc(C)c(NC(=S)NC(NC(=O)Cc2cccc3ccccc23)C(Cl)(Cl)Cl)c1 (stereo not drawn)	0.1	3.4	13%	-9	-0.3%	1.8%	8
NC(=O)c1ccsc1NC(=O)COC(=O)Cc1ccccc1[N+](=O)[O-]	-0.7	.	.	.	-0.2%	-2.0%	-6
COc1ccc(NC(=O)C2(C)Cc3c(-c4cccc(C(F)(F)F)c4)ccnc3O2)cc1OC (stereo not drawn)	-0.2	.	.	.	1.4%	1.7%	.
Cc1cc(O)c(C(C)C)cc1NC(=O)c1ccc(Cl)cc1	0.6	0.3	14%	1	8.6%	-2.9%	-3
N#CNC(=Nc1cccc(C(F)(F)F)c1)SCc1ccc(C(=O)O)cc1	2.0	-0.2	-8%	-14	-0.8%	-1.3%	15
COc1ccc(-c2nn(-c3ccc(F)cc3F)c3c2cnc2ccc(F)cc23)cc1	1.2	.	.	.	-0.4%	?	28
COc1cccc2sc(N(Cc3cccnc3)C(=O)Cc3ccccc3)nc12	0.2	.	.	.	2.1%	-7.1%	-13
CN(C)c1ccc(/C=C2\C(Cl)=Cc3ccccc32)cc1	-0.6	.	.	.	4.9%	-0.1%	.
COc1ccc(N(Cc2ccccc2)S(=O)(=O)c2cccc(C(=O)NCC3CCCO3)c2)cc1 (stereo not drawn)	5.1	.	.	?	-3.3%	.	8
CC1=NN(C(=O)c2ccc(Cn3cc(Br)c([N+](=O)[O-])n3)o2)C(O)(C(F)(F)F)C1 (stereo not drawn)	-0.6	3.1	16%	4	-1.1%	0.7%	2
CN(C)C=NC(=O)c1cc(C(=O)c2ccc(F)cc2)c[nH]1	-1.6	0.6	16%	1	0.2%	-0.3%	-3
COCc1cc(C)nc(OCC(=O)N/N=C/c2ccc(OC)c(OC)c2)c1C#N	0.2	1.4	-7%	4	1.6%	.	-4
C/C(=N\NC(=O)C1(C)CC1(Br)Br)c1ccc(C)cc1C (stereo not drawn)	0.2	0.7	4%	7	4.7%	1.4%	22
CCOc1ccccc1CNn1cnnc1	-0.4	.	.	.	6.4%	-2.2%	17
COc1ccc(-c2cnnn2-c2ccc(NC(=O)c3ccc(S(=O)(=O)N4CCCCC4)cc3)cc2)cc1	-1.4	-1.5	7%	-11	0.9%	?	-20
Cc1ccccc1N1C(=O)CC(Nc2ccc3c(c2)OCO3)C1=O (stereo not drawn)	1.7	-2.6	?	14	-1.4%	0.6%	10
COc1ccc(C)cc1N1C(=N)/C(=C2/Nc3ccccc3S2)C(c2ccccc2)C1=O (stereo not drawn)	0.4	3.5	-7%	12	-2.9%	-5.3%	-14
COCCN(C(=O)COC(=O)c1ccco1)c1c(N)n(Cc2ccccc2)c(=O)[nH]c1=O	0.3	.	.	-3	2.5%	1.4%	7
COc1ccc(CC(=O)Nc2ccc(S(=O)(=O)N(C)C3CCN(C)CC3)cc2)cc1	0.3	.	.	-6	-1.2%	-1.2%	5
Cc1cc(C(O)c2ncc(-c3ccccc3)[nH]2)ccc1F (stereo not drawn)	-0.7	.	.	.	0.2%	-0.5%	.

3 records picked at random from those above, as already listed:
SMILES	TRPML1 ag	Menin-MLL FL inh	Sfp PPTase inh	TRPV1 PAM	PINK1 modulator	ClpP mod	TRPML1 inh
CC1=NN(C(=O)c2ccc(Cn3cc(Br)c([N+](=O)[O-])n3)o2)C(O)(C(F)(F)F)C1 (stereo not drawn)	-0.6	3.1	16%	4	-1.1%	0.7%	2
COc1ccc(N(Cc2ccccc2)S(=O)(=O)c2cccc(C(=O)NCC3CCCO3)c2)cc1 (stereo not drawn)	5.1	.	.	?	-3.3%	.	8
Cc1cc(C(O)c2ncc(-c3ccccc3)[nH]2)ccc1F (stereo not drawn)	-0.7	.	.	.	0.2%	-0.5%	.

(list continues)
SMILES	TRPML1 ag	Menin-MLL FL inh	Sfp PPTase inh	TRPV1 PAM	PINK1 modulator	ClpP mod	TRPML1 inh
COc1ccc(C(C(=O)Nc2ccc3c(c2)OCO3)N(C)C(=O)Cc2c[nH]c3ccccc23)cc1 (stereo not drawn)	-1.2	-1.6	-3%	16	0.8%	-4.1%	1
COCCN1Cc2cccc(C(=O)NCCc3ccccc3)c2C1=O	1.4	-0.1	20%	-5	1.2%	.	-27
Cc1ccc(C(=O)NCCSC(C)(C)C)cc1[N+](=O)[O-]	0.0	-1.1	0%	-24	1.2%	8.3%	-8
Cc1nnc(NC(=O)CSc2nc(CC(C)C)nc3c2c(=O)n(C)c(=O)n3C)s1	0.0	1.7	9%	7	-2.0%	0.4%	0
CCCSc1nc(NCc2ccco2)c2c3c(sc2n1)COC(C)(CC)C3 (stereo not drawn)	1.3	1.7	-1%	-1	4.1%	-8.9%	23
O=C(Nc1cccc(NC(=O)c2cccnc2)c1)c1cccnc1	0.0	2.5	15%	5	.	-0.5%	28
CCCCC(CC)CNC(=O)C1CC=CCC1C(=O)O (stereo not drawn)	-0.4	4.0	18%	0	-1.9%	-1.0%	-6
COc1ccc(N2CCN(C(=O)CSc3nnc4c(C)cc5c(C)cc(C)cc5n34)CC2)cc1	2.1	-1.1	-17%	-2	-1.5%[38.3 µM]	-2.9%	7
CSCC[C@@H](CO)NC(=O)[C@H]1O[C@@H](n2ccc(=O)[nH]c2=O)[C@H](O)[C@@H]1O	-0.1	.	.	.	1.4%	1.5%	.
CCOC(=O)c1cc(-c2ccccc2)n(CCCC(=O)Nc2ccc(C)cc2C)c1C	0.7	.	.	.	7.2%	4.3%	-11
COc1cccc(C(=O)N2CCC[C@H]2C(=O)N2CCC[C@H]2C(=O)N[C@H](C)c2ccccc2)c1	-0.2	.	.	.	-0.1%	-0.8%	.
CN(CC(=O)Nc1cccc(S(=O)(=O)NC2=NCCC2)c1)Cc1ccccc1Cl	3.9	.	.	2	-0.3%	0.2%	-8
Cc1cc(NC(=O)C(C)SCC(=O)OC(C)C(=O)Nc2cccc(C#N)c2)no1 (stereo not drawn)	-0.4	.	.	4	-0.1%	-2.1%	26
O=C(SCc1c(O)c2ccccc2oc1=O)c1ccccc1	-0.3	.	.	.	1.2%	0.4%	-15
CC(NC(=O)Nc1ccc(F)cc1)c1ccc2c(c1)OCO2 (stereo not drawn)	-0.6	-4.8	5%	-1	-0.5%	-0.9%	-9
COc1ccccc1-c1nc(CNC(=O)NC2CCCCC2)c(C)o1	0.7	.	.	.	-0.3%	-23%	21
Cn1c(CCNC(=O)c2cccs2)nnc1SCC(=O)N1CCN(c2ccccc2)CC1	1.4	3.1	22%	15	-1.4%[38.3 µM]	-0.7%	-15
Cc1ccc(CS(=O)(=O)c2ncc(Cl)c(C(=O)Nc3nnc(C)s3)n2)cc1	-0.5	.	-13%	8	-1.8%	1.8%	2
COc1ccc(S(=O)(=O)N2CCCC2=O)cc1N(C)S(C)(=O)=O	-0.4	-1.0	1%	0	2.2%	1.3%	-16
COc1ccc(-c2nc3c(=O)n(C)c(=O)[nH]c3n2CCc2ccccc2)cc1	-0.7	1.9	-3%	4	-1.1%	?	-1
COc1ccc(N2C(=O)CCC(C(=O)Nc3ccccn3)C2c2ccc(OC)c(OC)c2)cc1 (stereo not drawn)	-0.1	1.0	19%	4	0.3%	5.5%	24
COc1cc(C(=O)OCCN2CCOCC2)cc(OC)c1OC	0.7	0.5	12%	5	-3.8%[38.3 µM]	-2.5%	1
CS(=O)(=O)N(CC(=O)NCCSCc1cccc(Cl)c1)c1ccc(F)cc1	1.8	0.7	10%	3	4.0%	-0.1%	7
O=C(c1cc(C(=O)N2CCOCC2)c2nc3ccccc3n2c1)c1ccccc1O	-0.7	3.6	16%	7	0.3%	-0.7%	0
CCCCOC(=O)Cn1c(=O)n(CC(=O)OCCCC)c2cc(C)ccc21	2.6	-1.1	7%	-21	9.6%	0.7%	3
Cc1cc(-c2ccc(C)c(S(=O)(=O)Nc3cccc(CN4CCCC4)c3)c2)on1	0.3	.	9%	-5	0.7%	-2.9%	-22
CSc1nc2n(n1)C(c1cc(Br)ccc1F)C(C(=O)N(C)C)=C(C)N2 (stereo not drawn)	0.2	2.9	7%	-12	-2.0%	-2.7%	13
Nc1cccc(S(=O)(=O)Nc2ccc(Br)cc2)c1	-0.3	3.0	16%	4	-0.4%	-2.7%	-19
O=C(NCCc1ccccc1)c1ccnc(/C=N/O)c1	-0.4	2.4	-17%	-7	0.0%[38.3 µM]	-1.3%	-10
Cc1ccc2nc3c(cc(C(=O)NCCc4ccccc4)c(=N)n3CCN3CCOCC3)c(=O)n2c1	0.5	-1.9	6%	8	5.4%	.	21
CCOc1cnc(-c2c(-c3c(Cl)cccc3Cl)noc2C)o1	0.7	0.8	11%	0	-2.0%	.	-23
O=C(C[C@H]1C/C=C\CCC(=O)OC[C@H]2CCCN2C1=O)NCCO	-0.5	.	.	.	1.2%	-1.9%	0
CCCC/C(C)=N\NC(=O)CNS(=O)(=O)c1ccc([N+](=O)[O-])cc1	0.1	1.1	8%	12	2.4%	-1.4%	-3
CC(C)c1nc(SCC(=O)N2CCCCC2)c2c(=O)n(C)c(=O)n(C)c2n1	0.1	.	.	.	-0.7%	-0.4%	2
O=C(CSc1nc2ccccc2n1Cc1ccc(Cl)cc1)N/N=C/c1ccccc1C(=O)O	0.0	0.9	7%	27	1.5%	.	26
COc1ccc(S(=O)(=O)NC2CC(=O)N(c3ccc(C)c(C)c3)C2)cc1C (stereo not drawn)	1.8	.	.	-16	-2.0%	-2.3%	21
O=C(Nc1ccc(Nc2ccccc2)cc1)c1cccc(F)c1	1.1	-1.2	-4%	-24	6.8%	-0.3%	23
Cc1cc(C)n(Cc2cccc(F)c2)c(=O)c1C#N	0.1	2.1	15%	-2	8.1%[38.3 µM]	?	-2

This is a random part of the collection; 4.4% or so of the library scored in one or more.
